MgrA DNA FP – S. aureus MgrA activity modulators, primary screen, biochemical, S. aureus Newman, fluorescence polarization | MgrA-DNA binding | inhibition, %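 (about 10 µg/mL by stock and volumes)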 | actives 0.13% (n = 84,000) | AID 602314, 2012;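 active = above 50% in either of two replicates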;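 note: 0% = protein plus DNA without compound and 100% = DNA alone without protein; higher means less MgrA bound to DNA so lower polarization; one replicate is shown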
Sa helicase inh – inhibitors of S. aureus replicative helicase, primary screen, biochemical, fluorescence unwinding readout | actives 0.05% (n = 120,000) | inhibition, %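 (tested at about 80 µM)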 | AID 485395, 2010 | replicative DNA helicase (DnaC/DnaB), Staphylococcus aureus | purified S. aureus helicase, fluorescence unwinding assay; about half of the hits fall short of the stated cut;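 active = both duplicates at 50% or more, or one of them with a favoured structure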;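 note: 0% = mean of negative control wells and 100% = mean of positive control wells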
* hit, by the source's call; · = not tested or not shown; & = joins results of further samples. Some of the compounds tested; the hit share may differ from the screen's.

SMILES	MgrA DNA FP	Sa helicase inh
CC(=O)N[C@@H](Cc1c[nH]c2ccccc12)C(=O)NC1CC1	·	4
COc1ccc(C(O)Cc2nc3ccccc3n2C)cc1OC (stereo unspecified)	·	-19
COC12CCC(CC1)C(O)(C#N)C2 (stereo unspecified)	-14	·
CCOc1cc(OCC)c(/C=N/O)c(OCC)c1	-1.2	·
Cc1ccc(CS(=O)Cc2ccc(C(=O)NC3CCCc4ccccc43)o2)cc1 (stereo unspecified)	·	-9
N=c1c2c3c(sc2ncn1Cc1ccccc1)CCCC3	·	3
O=C(N/N=C/c1ccco1)c1cc(C23CC4CC(CC(C4)C2)C3)[nH]n1	·	13
CCc1ccc(N(CC)C(=O)c2cc3c(=O)n(CC)c4ccccc4c3s2)cc1	3.0	19
Cn1c(SCC(=O)c2ccc(Cl)cc2)nnc1C(F)(F)F	-1.9	·
COc1ccc(NC(=O)CCCSc2nc3sc(C)c(C)c3c(=O)[nH]2)cc1	·	-20
N#Cc1ccc(Sc2ccccn2)c([N+](=O)[O-])c1	1.7	·
N#C/C(N)=C(/C#N)N=Cc1ccccc1Sc1ccc(Cl)cc1	-0.4	·
CCc1cccc(NC(=O)C(Cc2ccccc2)NC(=O)C2CCC(C)CC2)c1 (stereo unspecified)	0.5	13
O=C1Nc2ccccc2C12OC1CCCCC1O2 (stereo unspecified)	-1.8	10
COc1ccc(S(=O)(=O)N2CCCCC2c2cccnc2)cc1 (stereo unspecified)	·	7
CC(C)Cn1c(NN)nc2c1c(=O)[nH]c(=O)n2C	·	15
Cc1cccc2cc(C#N)c(SCCN3CCCCC3)nc12	4.7	11
COc1ccc(CCNC(=S)N(Cc2ccco2)Cc2cc3cc(OC)c(OC)cc3[nH]c2=O)cc1OC	4.8	-8
O=C(CC(c1ccccc1)C1C(=O)NC(=S)NC1=O)c1cccs1 (stereo unspecified)	0.4	-1
Cc1oc(-c2ccc(C(=O)NC(C)C)cc2)nc1COc1ccccc1	·	18
CN(C)C(=O)CCSc1ccc(Cl)cc1	-2.4	-3
CCOc1ccc(NC(=O)CNC(=O)c2nn(-c3ccc(OC)c(OC)c3)c(=O)c3ccccc23)cc1	·	12
CCN(CC)c1ncnc2c1cnn2-c1ccc(C)cc1C	·	-16
COc1ccc(S(=O)Cc2ccc(C(=O)NC(C)C)o2)cc1 (stereo unspecified)	·	22
CCOC(=O)c1[nH]c(COC(=O)C2COc3ccccc3O2)c(C(=O)OCC)c1C (stereo unspecified)	·	8
O=C(NCC1CCCO1)c1coc2nc3ccccc3nc12 (stereo unspecified)	·	-6
COc1ccc(CN2C(=S)N(c3ccccc3)C(=O)C2CC(=O)Nc2ccccc2)cc1 (stereo unspecified)	1.0	-9
CCNc1sc(S(C)(=O)=O)nc1S(=O)(=O)c1ccc(C)cc1	·	18
CC1C(=O)CCN(C2CC2)C1C (stereo unspecified)	·	13
CNC1(c2nnnn2CCOC(=O)Nc2ccc(Cl)cc2)CCCC1	·	0
CC1c2ccsc2CCN1S(=O)(=O)c1cccs1 (stereo unspecified)	-0.9	·
CCOc1ccc(-c2cc3ccc(N(CC)CC)cc3oc2=O)cc1	2.0	-34
CC1c2[nH]c3ccccc3c2CCN1S(C)(=O)=O (stereo unspecified)	·	14
COc1ccc(S(=O)(=O)N2CCCCCC2)cc1C(=O)N(Cc1nnc(-c2ccccc2Cl)o1)C(C)C	·	-5
CN(C1CCCCC1)S(=O)(=O)c1ccccc1N=Cc1c(O)[nH]c(=O)[nH]c1=O	·	9
CC(C)N(C)C1CCN(C(=S)Nc2ccccc2Cl)CC1	·	21
Cc1ccc(-c2cc(C(F)F)n3ncc(C(=O)Nc4cn(C)nc4C)c3n2)cc1	-1.0	5
CN(C)c1nc(-c2ccccc2)nc(-c2ccccc2)c1C#N	0.3	·
CCC(Sc1nnc2c3ccccc3n(CC)c2n1)C(=O)Nc1ccc(S(N)(=O)=O)cc1 (stereo unspecified)	·	-30
Cc1cc(=O)oc2cc(OCC(=O)NCc3cccnc3)ccc12	0.3	7

Complete entries, looked up by structure. Screens in order: MgrA DNA FP, Sa helicase inh
Record of CN(C1CCCCC1)S(=O)(=O)c1ccccc1N=Cc1c(O)[nH]c(=O)[nH]c1=O → ·, 9
Record of CCc1cccc(NC(=O)C(Cc2ccccc2)NC(=O)C2CCC(C)CC2)c1 (stereo unspecified) → 0.5, 13

Next section:
SMILES	MgrA DNA FP	Sa helicase inh
CCOC(=O)C1C(=O)C=C(Nc2ccc(Br)cn2)CC1c1cccc(OC)c1 (stereo unspecified)	·	16
CCOC(=O)c1noc2ncnc(N(CC)c3ccccc3)c12	·	11
O=C(O)c1cccc(O)c1	-0.7	-2
CCOC(=O)N1CCN(c2cc(NCCCC(=O)O)c3c4c(onc24)-c2ccccc2C3=O)CC1	·	-98
Fc1ccc2[nH]cc(CCCN3CCN(c4nc5cc(Cl)ccc5s4)CC3)c2c1	-0.9	·
N#CC(c1ccccc1Cl)N1CCOCC1 (stereo unspecified)	1.4	·
Cc1ccccc1OCCCCS	4.3	·
CC1OC(NC(=O)c2ccccc2F)C(NC(=O)c2ccccc2F)OC1C (stereo unspecified)	-1.1	4
Cc1cc(NC(=O)C2C3C(=O)N(c4ccccc4Cl)C(C(=O)NC(C)(C)C)C34C=CC2(C)O4)no1 (stereo unspecified)	4.5	1
Cc1cc(C)nc(SC(C)C(=O)Nc2ccc(S(N)(=O)=O)cc2)n1 (stereo unspecified)	2.0	7
Clc1ccc(-c2ccnc3nncn23)cc1	·	-21
O=C1c2ccccc2-c2nc3cc(C(F)(F)F)ccc3nc21	1.5	·
Cc1cc(N=CN(C)C)c2ccccc2n1	2.0	·
CNC(=O)COc1ccc(-c2nn(C)c(=O)c3ccccc23)cc1	1.1	-12
Cc1n[nH]c(C)c1C12CC3CC(CC(CC(=O)O)(C3)C1)C2	0.8	15
Cc1cc(C(F)(F)F)nn1Cc1ccc(C(=O)NCc2ccco2)o1	0.2	7
CSC(SC)=C(C#N)C(=O)c1ccoc1C	6.8	·
COc1ccccc1C1(CC(=O)O)CCOC(C(C)C)C1 (stereo unspecified)	0.1	12
CSc1nc(N)nc(CSc2ccccc2)n1	1.1	·
O=C(O)c1cc2ccccc2c(Cc2cc3ccccc3c(C(=O)O)c2O)c1O (tested in a mixture with another compound)	2.1	·
COc1ccccc1NC1CCS(=O)(=O)C1 (stereo unspecified)	·	11
CCS(=O)(=O)N1CCCC(C(=O)NCc2cccnc2)C1 (stereo unspecified)	0.0	5
Cc1oc(S(=O)(=O)N2CCCC2)cc1C(=O)NCc1ccc2c(c1)OCO2	-2.0	·
CCOC(=O)c1c(N)n(C(C)c2ccccc2)c2nc3ccccc3nc12 (stereo unspecified)	·	-2
c1ccc2c(c1)COC(CN1CCCCC1)OC2	2.0	6
CC(C)(C)CC(C)(C)NS(=O)(=O)Cc1ccccc1	3.0	2
CC12CC3CC(C)(C1)CC(C(=O)Nc1ccc4c(c1)OCO4)(C3)C2	·	10
C=C(C)[C@@H]1CC[C@]2(C(=O)O)CC[C@]3(C)[C@H](CC[C@@H]4[C@@]5(C)CC[C@H](O)C(C)(C)[C@@H]5CC[C@]43C)[C@@H]12	3.4&5.1	·
COc1cc(C2C3=C(CC(c4ccco4)CC3=O)Nc3ccccc3N2C(=O)C2CC2)cc(OC)c1OC (stereo unspecified)	·	-29
C=CCn1c(COc2ccc(CC)cc2)nnc1SC/C(O)=C(\C#N)c1nc2ccccc2[nH]1	·	-60
Cc1nn(-c2ccccc2)c(Cl)c1C(=O)NCC1CCCO1 (stereo unspecified)	·	6
CSc1cccc(NC(=O)c2ccccc2F)c1	2.4	·
COc1ccc(Br)cc1S(=O)(=O)Oc1c(Cl)cc(C(C)(C)C)cc1Br	-0.1	·
O=C(c1cc(C(F)(F)F)cc(C(F)(F)F)c1)N1CCC(O)(c2ccc(Cl)cc2)CC1	-0.2	·
O=C(COc1ccc(-c2ccccc2)cc1)NCCN1CCOCC1	-0.4	0
CN/N=C/c1cc(OC)c(O)c(OC)c1	·	5
Cc1sc2ncnc(Oc3cccc(C(F)(F)F)c3)c2c1-c1ccccc1	2.6	-4
COC(=O)c1ccccc1NC(=S)OC	-1.6	·
Cc1ccc(SCc2cccc(C(=O)N3CCN(c4ncccc4C(F)(F)F)CC3)c2)cc1	2.5	·
O=C(Cn1c2c(c(-c3ccccc3)cc1=O)CCCC2)NCc1ccc(Cl)cc1	-1.2	18
CC(C)(C)c1ccc(OCCn2cccc2/C=C2/C(=N)N3C=CSC3=NC2=O)cc1	·	-18
CCOC(=O)c1c(NC(=O)Cn2nnc3sc4c(c3c2=O)CCC(C)C4)sc2c1CCCC2 (stereo unspecified)	2.6	3
COC(=O)CN1C(C)=Nc2ccc(C)cc2C1c1ccccc1 (stereo unspecified)	-0.4	11
O=C(N/N=C/c1ccc(Br)cc1)c1ccc(-n2cnnn2)cc1	·	-18
Cc1ccc(C2c3c(n[nH]c3C)C(=O)N2c2ccc(C)cc2)cc1 (stereo unspecified)	-0.5	13
Cn1c(CSC2=NCCN2)nc2ccccc21	7.9	10
O=C(NC1=NCCS1)NC12CC3CC(CC(C3)C1)C2	·	7
COc1ccc(C(F)(F)F)cc1NC(=O)c1ccc(Br)o1	7.7	16
CC1(C)C(c2nc(-c3ccc(Br)cc3)no2)C1(C)C	-1.8	9
CCCN1CCN(CC(=O)c2ccc3cc[nH]c3c2)CC1	·	14
Other records.
SMILES	MgrA DNA FP	Sa helicase inh
O=C(/C=C/c1cccs1)NCc1ccccc1	·	12
Cc1cccc(C(=O)Nc2nc3cc4sc(NC(=O)c5cccc(C)c5)nc4cc3s2)c1	-2.0	3
CS(=O)(=O)NC(CC(=O)O)c1ccccc1Cl (stereo unspecified)	·	-2
O=C(O)c1c(-c2ccccc2)c2oc3ccccc3c2[nH]c1=O	·	11
CN(C)S(=O)(=O)c1ccc(NC(=O)c2cnc(Cl)c(Cl)c2)cc1	·	-13
O=c1[nH]c(SCc2nnc(Nc3ccccc3)s2)nc2sc3c(c12)CCC3	0.0	5
Cc1c(CN2CCCCC2)c(O)n(CCO)c(=O)c1C#N	-3.2	7
COc1cccc(C(=O)N(Cc2cccnc2)Cc2cc3cc(C)cc(C)c3[nH]c2=O)c1	-1.5	3
FC(F)(F)Sc1nc2ccccc2[nH]1	·	-4
O=C(Nc1cccc(C(=O)c2ccccc2)c1)c1ccc([N+](=O)[O-])cc1	3.2	·

Arranged by the number under Sa helicase inh (lowest first): six of the compounds above.
SMILES	MgrA DNA FP	Sa helicase inh
CN(C)S(=O)(=O)c1ccc(NC(=O)c2cnc(Cl)c(Cl)c2)cc1	·	-13
FC(F)(F)Sc1nc2ccccc2[nH]1	·	-4
CS(=O)(=O)NC(CC(=O)O)c1ccccc1Cl (stereo unspecified)	·	-2
COc1cccc(C(=O)N(Cc2cccnc2)Cc2cc3cc(C)cc(C)c3[nH]c2=O)c1	-1.5	3
O=C(O)c1c(-c2ccccc2)c2oc3ccccc3c2[nH]c1=O	·	11
O=C(/C=C/c1cccs1)NCc1ccccc1	·	12

The listing continues.
SMILES	MgrA DNA FP	Sa helicase inh
COC(=O)C1=C(NC(=O)COc2ccc(Cl)cc2)CCS1	·	0
O=C1c2ccccc2C(=O)N1CCSc1nc2cc(Cl)ccc2c(=O)n1Cc1ccco1	·	-1
CCOC(=O)N1CCCN=C1SC	-0.5	·
CCOC(=O)CCCn1nc(C)c2c(C)n(-c3ccc(C)cc3)nc2c1=O	·	-3
Cc1cccc(C)c1NC(=O)CS(=O)CC(=O)NC1CCCc2ccccc21 (stereo unspecified)	-0.4	-3
CCOC(=O)c1ccc(N(C(C)=O)c2nc(-c3cc4cccc(OCC)c4oc3=O)cs2)cc1	-1.1	-1
COc1ccc(CCNC(=O)CCn2c(=O)oc3ccccc32)cc1OC	-0.1	22
CNS(=O)(=O)Cc1ccccc1Cl	0.9	7
O=C(CN1CCN(Cc2ccccc2)CC1)Nc1ccccc1	0.6	9
C=CCN1C(=O)/C(=C/c2ccc3c(c2)n(C)c(=O)n3C)C(=O)NC1=S	0.8	4
COc1ccc(NC(=O)N2CC=C(c3c[nH]c4ccccc34)CC2)cc1	·	-6
O=C(O)Cn1cnc(-c2ccc(Br)cc2)c1	0.2	6
O=C(OCc1cc(=O)oc2cc(O)ccc12)c1nc(Cl)ccc1Cl	·	-8
O=C(O)/C=C/c1c(Cl)nc2sccn12	0.5	3
C(=N\n1cnnc1)/c1ccc2ncccc2c1	-1.3	-12
O=C(Nc1ccccc1N1CCOCC1)c1cc2sc3ccccc3c2s1	2.2	7
O=C(O)c1ccccc1-c1ccccc1C(=O)O	2.0	-4
OC(c1ccccc1)(c1ccccc1)C1CCN(c2nnnn2-c2ccccc2)CC1	·	-7
CCC(CC)c1nn(CC(=O)c2cc(C)n(CCOC)c2C)c(=N)s1	·	-13
COCCn1c(SCc2nc(N)nc(Nc3ccccc3C)n2)nc2ccccc21	·	24
O=C(OCC(=O)C12CC3CC(CC(C3)C1)C2)c1cccnc1	·	15
CC(C)NC(=O)C(C)n1c2ccccc2c2cnn(C)c(=O)c21 (stereo unspecified)	1.1	-9
COc1cccc(N2CCN(C(=O)C3=C(C)C(=O)OC34CCCCC4)CC2)c1	·	-21
COc1ccc(OC(C)C(=O)NCc2ccc3c(c2)OCO3)cc1 (stereo unspecified)	-1.2	12
O=C(CSc1ncccn1)c1ccccc1	·	-17
CCOc1ccccc1NC(=O)CCc1nnc2ccc(N3CCN(C)CC3)nn12	3.1	-3
CCn1cc(C(=O)N2CC(C)CC(C)C2)c(=O)c2cc(S(=O)(=O)N3CCC(C)CC3)ccc21 (stereo unspecified)	·	-22
CC(C)Oc1ccc(C(=O)NCc2cccnc2)cc1	-0.4	20
Cc1oc2cc(O)ccc2c(=O)c1-c1ccc(F)cc1	·	12
COc1ccc(OCCSc2n[nH]c(N)n2)cc1	1.4	9

High-throughput results as filed in PubChem.
